JMJD2A Tudor inh = qHTS Assay for Inhibitors of JMJD2A-Tudor Domain. Lysine-specific demethylase 4A (Homo sapiens), O75164. AlphaScreen JMJD2A-Tudor / H3K4me3 peptide binding. Potency, µM (top dose mostly 114 µM), inactives show at the top dose activity change, negative = inhibition, actives largely listed as inhibitors. actives 4.4% (n = 390,000). AID 504339, 2011; also: potency is read from the fitted curve at half-maximal effect; % is scaled to controls: 0 for no effect and ±100 for the full control effect; nearly all actives have a fitted effect of over 50% in size
PGK inhibitor = qHTS Assay to Find Inhibitors of Phosphoglycerate Kinase | PGK/GAPDH coupled, Kinase-Glo luminescence, 60 min | actives 0.043% (n = 380,000) | Phosphoglycerate kinase, glycosomal (Trypanosoma brucei brucei), P07378 | Potency, µM (series often up to 57.5 µM), without a hit: top-dose activity change, negative = inhibition, most hits filed as inhibitors; also: potency is read from the fitted curve at half-maximal effect; % is scaled to controls: 0 for no effect and ±100 for the full control effect; nearly all actives have a fitted effect of over 60% in size
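Recombinant glycosomal PGK reaction used 1,3-bisphosphoglycerate generated in-well by GAPDH (100nM final) in 100mM TEA pH 7.6, 5mM MgCl2, 0.01% Tween-20. After 60 minutes at room temperature, ATP was read by Kinase-Glo Plus luminescence end-point.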
Pin1 inhibitor = qHTS Assay to Find Inhibitors of Pin1; actives 0.009% (n = 390,000); Potency, µM (titrated, usually from 115 µM), for inactives: at the top dose activity, negative = inhibition, most hits filed as inhibitors; Pin1 FP peptide displacement, HiFluor488, 10 min; active = well fitted inhibition curve with a large enough effect in the polarisation, with a control signal flat, not every such curve was filed as active; inconclusive = small, poorly fitted or top-dose-only effect, or effect the other way, or a change in a side signal; inactive = no such curve, though single readings can be large or run the other way; the % refers to the polarisation; also: potency is read from the fitted curve at half-maximal effect; % is scaled to controls: 0 for no effect and ±100 for the full control effect
Target sequence (Q13526 whole entry, looked up): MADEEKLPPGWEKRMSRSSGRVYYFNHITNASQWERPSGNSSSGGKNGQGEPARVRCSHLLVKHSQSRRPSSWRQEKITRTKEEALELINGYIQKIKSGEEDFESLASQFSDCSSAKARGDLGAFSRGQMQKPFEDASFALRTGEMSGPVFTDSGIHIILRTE
PI4K2A block = qHTS for small molecular inhibitors of PI4K2A | purified PI4K2A, ADP-Glo luminescence, 1 h; active compounds read low | activity change, negative = inhibition, % at 76.9 µM | actives 0.13% (n = 420,000) | AID 1346378, 2018 | Phosphatidylinositol 4-kinase type 2-alpha (Homo sapiens), Q9BTU6; in the data active = activity change below about -50%; inconclusive = mostly about -30% to -49%;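 also: -100% = wells without enzyme as full effect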
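PI4K2A activity was measured by ADP-Glo luminescence: enzyme (4 ug/mL stock) and phosphatidylinositol (1.2 mM stock) in Tris pH 7.5/MgCl2/EGTA/Triton X-100 buffer were reacted with ATP (300 microM stock) for one hour at ambient temperature.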
G9a block = qHTS Assay for Inhibitors of Histone Lysine Methyltransferase G9a. G9a H3K9 monomethylation, AlphaScreen, 2 h. Histone-lysine N-methyltransferase EHMT2 (Homo sapiens), Q96KQ7. Potency, µM (top dose mostly 102 µM), for inactives: at the top dose activity, negative = inhibition, most hits filed as inhibitors. actives 8.8% (n = 350,000); also: potency is read from the fitted curve at half-maximal effect; % is scaled to controls: 0 for no effect and ±100 for the full control effect; nearly all actives have a fitted effect of over 75% in size
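Readings reflect AlphaScreen signal from monomethyl-H3K9 antibody detection. HMT at 20 nM; substrate b-H3K9 500 nM; cofactor SAM 20 uM; 2 h RT reaction; compounds tested as titrations in qHTS with 15 min preincubation.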
GLS inh = qHTS for Inhibitors of Glutaminase (GLS); Glutaminase kidney isoform, mitochondrial (Homo sapiens), O94925; GLS enzymatic activity, qHTS titration; Potency, µM (series often up to 45.5 µM), without a hit: top-dose activity change, negative = inhibition, usual class: inhibitors; actives 0.21% (n = 410,000); also: potency is read from the fitted curve at half-maximal effect; % is scaled to controls: 0 for no effect and ±100 for the full control effect
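hKGA in 45 mM KH2PO4 pH 8.2, 0.02% Tween-20 with pin-transferred compounds; 1 mM L-glutamine (stock) plus glutamate oxidase/HRP/Amplex Red coupling added. Fluorescence read initially and after 30 min at RT.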
HP1b binding inh = HTS for Inhibitors of HP1-beta Chromodomain Interactions with Methylated Histone Tails | AlphaScreen HP1-beta / biotin-H3K9me3 peptide binding | Potency, µM (titrated, usually from 114 µM), for inactives: top-dose activity change, negative = inhibition, most hits filed as inhibitors | actives 0.56% (n = 390,000) | AID 540317, 2011 | Chromobox protein homolog 1 (Homo sapiens), P83916; also: potency is read from the fitted curve at half-maximal effect; nearly all actives have a fitted effect of over 70% in size; inactives centre near 23
Target sequence (P83916 whole entry, looked up): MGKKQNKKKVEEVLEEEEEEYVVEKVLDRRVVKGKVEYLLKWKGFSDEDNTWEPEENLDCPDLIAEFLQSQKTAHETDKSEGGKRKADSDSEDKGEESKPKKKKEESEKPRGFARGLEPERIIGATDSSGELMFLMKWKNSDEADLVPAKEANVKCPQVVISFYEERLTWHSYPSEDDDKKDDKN
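AlphaScreen: HP1-beta (50 nM) preformed 30 min with biotin-H3(1-18)K9me3 peptide (50 nM) in PBS pH 7.4, 0.01% Tween-20. Compound added for 30 min at RT, then streptavidin donor/nickel chelate acceptor beads (10 ug/mL) for 30 min.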
Pol eta inh = qHTS for Inhibitors of Polymerase Eta; recombinant Pol eta, fluorescent DNA replication assay; Potency, µM (titrated, usually from 114 µM), for inactives: at the highest dose activity change, negative = inhibition, hits mostly inhibitors; actives 1.2% (n = 390,000); DNA polymerase eta (Homo sapiens), Q9Y253; also: potency is read from the fitted curve at half-maximal effect; % is scaled to controls: 0 for no effect and ±100 for the full control effect
Target sequence (Q9Y253 whole entry, looked up): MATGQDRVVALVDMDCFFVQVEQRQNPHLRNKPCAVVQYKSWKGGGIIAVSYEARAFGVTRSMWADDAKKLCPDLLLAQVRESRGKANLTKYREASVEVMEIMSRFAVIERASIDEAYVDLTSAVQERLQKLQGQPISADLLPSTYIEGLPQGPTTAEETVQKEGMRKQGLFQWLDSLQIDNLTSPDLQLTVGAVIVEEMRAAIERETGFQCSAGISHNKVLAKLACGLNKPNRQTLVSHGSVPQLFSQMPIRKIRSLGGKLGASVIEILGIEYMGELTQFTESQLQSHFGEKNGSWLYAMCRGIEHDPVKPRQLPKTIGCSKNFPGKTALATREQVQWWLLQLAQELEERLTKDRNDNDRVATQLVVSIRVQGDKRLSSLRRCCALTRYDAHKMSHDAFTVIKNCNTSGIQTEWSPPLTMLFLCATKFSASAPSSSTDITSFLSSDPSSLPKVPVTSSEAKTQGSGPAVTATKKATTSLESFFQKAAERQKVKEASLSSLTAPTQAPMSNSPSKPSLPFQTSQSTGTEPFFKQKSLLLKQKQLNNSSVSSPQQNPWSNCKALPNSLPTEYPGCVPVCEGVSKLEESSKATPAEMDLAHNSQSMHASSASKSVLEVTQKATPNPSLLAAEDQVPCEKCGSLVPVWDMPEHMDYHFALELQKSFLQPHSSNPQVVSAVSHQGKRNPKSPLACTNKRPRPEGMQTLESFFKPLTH
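Fluorescent replication assay: 50 nM final substrate added after a 15 min room-temperature compound preincubation with 10 nM enzyme. Signal taken at 0 min and again at 10 min.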
An asterisk follows results filed as active; i = inactive; ? = inconclusive; . = not tested or not shown; & = joins results of further samples; ! = not confirmed by another sample; [ ] = dose if it differs, or a comment. Unless noted, calls follow the shape of the dose curve; as a rule, active = well fitted curve in the direction sought with a large enough effect; inconclusive = small, poorly fitted or top-dose-only effect, or another doubt; inactive = no such curve, though single readings can be large; an effect the other way counts as inactive or inconclusive. These rows are one share of the data. The share of hits here may be higher or lower than overall.

SMILES | JMJD2A Tudor inh | PGK inhibitor | Pin1 inhibitor | PI4K2A block | G9a block | GLS inh | HP1b binding inh | Pol eta inh
COc1ccccc1N1CCN(CC(O)COc2cccc3ccccc23)CC1 (configuration not stated) | ? | -2%&0% | 9%&1% | 0&-1&-6&-6 | 13µM*! | 23%&23%&14% | -22%&39% | -14%
CCOC(=O)N1CCN(CC(=O)n2c(C)c(C)c3ccccc32)CC1 | ? | i | -6% | 4 | 13µM* | 1% | -37% | 0%
CCOC(=O)c1nnn(-c2nc(OC)nc(N3CCCCC3)n2)c1-c1ccccc1 | . | . | . | . | 14% | . | . | .
Nc1nc(CN2CCN(c3ccccc3)CC2)nc(Nc2ccc(Cl)cc2)n1 | ? | 9% | ? | 6 | ? | 15% | -4% | -10%
O=C(CSc1nccn1C1CCCC1)Nc1cc(C(F)(F)F)ccc1Cl | ? | i | -5% | -2 | 13µM* | 6% | ? | -26%
CCOC(=O)c1c(NC(=O)CS(=O)(=O)c2ccc(C)cc2)sc2c1CCC(C)C2 (configuration not stated) | -19% | -11% | 16% | 2 | -1%[59 µM] | -8% | 30% | -22%
COc1cc2c(cc1OC)CN(C(=O)c1ccc(-c3ccccc3)cc1)CC2 | ? | i | 1% | -2 | -19% | -5% | -7% | ?
COc1cc(CN2CCN(C(c3ccccc3)c3ccccc3)CC2)cc(OC)c1OC | -100% | -10% | ? | -3 | 28µM* | -4% | ? | -24%
Cc1ccc(/C=N/c2sc(Cc3ccccc3)c(C)c2C(N)=O)o1 | ? | -6% | ? | 2 | 45µM* | 4% | ? | -2%
COc1cccc(-n2c(N)c(-c3nc4ccccc4[nH]3)sc2=S)c1 | ? | i | 1% | 3 | ? | ? | ? | -21%
COc1cccc(OCC(=O)NNC(=O)c2cnccn2)c1 | ? | -9% | -3% | -1 | ? | 8% | 9% | -8%
O=C1C2CCCN2C(c2ccc(Cl)cc2)N1c1nccs1 (configuration not stated) | -27%[57.1 µM] | 5% | -4% | 2 | 16µM* | -19% | 24% | -6%
CO/N=C(\c1nonc1N)N1CCN(c2ccc(Cl)cc2[N+](=O)[O-])CC1 | ? | -10% | 1% | 3 | 35µM* | 0% | ? | -17%
CC(=O)c1c(C)[nH]c(C(=O)OCCCCN2C(=O)c3ccccc3C2=O)c1C | -26% | 15% | -1% | 4 | 11%[59 µM] | 1% | 29% | -15%
O=C(Oc1cccc2cccnc12)c1ccc2c(c1)OCCO2 | ? | 9% | 1% | -3 | ? | 0% | 34% | 3%
CC(C)[C@H](CO)Nc1nc(Nc2ccc(Cl)c(C(=O)O)c2)c2ncn(C(C)C)c2n1 | -19% | -5% | 0% | -4 | ? | 0% | 39% | -8%
COc1ccc(C(CC(=O)Nc2ccccc2OC)n2cccc2)cc1 (configuration not stated) | ? | -1% | 0% | -5 | -50%[59 µM] | -7% | -33% | -10%
COc1ccc(-c2cc(OC(=O)c3ccccc3Cl)c3c(C)oc(C)c3c(=O)c2)cc1OC | ? | -3% | 7% | 0 | ? | 5% | -21% | 16%
Nc1ncnc(Nc2ccc(F)cc2)n1 | -5% | -9% | 3% | -12 | -2%[59 µM] | -6% | 26% | -18%
O=C(CSc1ncc(CO)n1Cc1ccccc1)Nc1nc2ccccc2s1 | ? | -2% | 3% | -2 | -10%[59 µM] | -12% | 3%[57 µM] | -10%
Cn1c(=O)n(C)c2cc([N+](=O)[O-])c(N3CCN(C(=O)c4ccccc4Br)CC3)cc21 | -21% | -6% | -8% | 1 | -2% | 9% | 25% | -3%
C=CCNC(=O)C1CC(c2cccc(OC)c2)=NO1 (configuration not stated) | -9% | -6% | 2% | 6 | -30% | 0% | 15% | 7%
Cc1ccccc1Nc1c([N+](=O)[O-])ccc2c1=NC1(CCCCC1)N=2 | ? | 2% | -5% | -2 | ? | 1% | -22% | -14%
O=C(CN1C(=O)S/C(=C\c2cccs2)C1=O)Nc1ccc(O)c(C(=O)O)c1 | -20% | -2% | -9% | 2 | ? | 33%[activator] | 17% | -16%
c1cn2c(Nc3ccc4c(c3)OCCO4)c(-c3ccc(N4CCOCC4)cc3)nc2cn1 | ? | 4% | ? | 1 | 50µM* | 12% | ? | 5%
Cc1ccc(Cn2ccnc2SCC(=O)Nc2ccc3c(c2)OCO3)cc1 | ? | . | ? | 2 | -48%[59 µM] | 2% | -24%[57 µM] | .
COc1ccc(Cn2cnc3c(N)c(C)c(C)cc32)cc1 | ? | -4% | -7% | 3 | ? | -9% | ? | -7%
Nc1c(C(O)(C(F)(F)F)C(F)(F)F)ccc2ccccc12 | -17% | i | -6% | -1 | -9%[59 µM] | 10% | 7% | -13%
CCCOc1nc(N)c(C#N)c(-c2ccccc2F)c1C#N | -3% | -3% | 4% | 1 | -1%[59 µM] | 1% | 42%[activator] | -15%
C=COCCNC(=S)Nc1ccccc1 | -14% | -7% | -5% | 5 | 32µM* | 3% | -6% | -23%
CCOC(=O)CSc1nnc(NCC(=O)OC(C)C)c(=O)[nH]1 | 10%[11.4 µM] | i | -6% | -7 | -39%[12.7 µM] | 46%[activator] | 9% | -14%
O=C1/C(=C/c2cccnc2)Oc2cc(OS(=O)(=O)c3ccccc3)ccc21 | ? | i | 7% | 1 | ? | -6% | ? | -11%
COc1cc(OC)c(OC)cc1/C=C/c1nc2ccccc2c(=O)n1-c1ccc(Br)c(C)c1 | ? | 5% | 18% | 2 | -43%[59 µM] | 0% | -14% | -14%
Cc1cccc(-n2ccnc2SCC(=O)Nc2ccccc2C(F)(F)F)c1 | ? | -7% | -6% | 7 | ? | -12% | ? | -8%
COc1ccc(/C=C/c2nc(C#N)c(N3CCCCCC3)o2)cc1OC | -28% | -6% | -2% | -5 | ? | 13% | -23% | -6%
CCN(CC(=O)Nc1c(F)cccc1F)C(=O)C1CCCN(C(=O)c2ccc(Cl)cc2)C1 (configuration not stated) | -7% | i | -5% | -2 | 8% | -1% | 23% | ?
C(=N\N(Cc1ccccc1)c1ccccc1)/c1ccco1 | ? | 6% | 7% | -21 | 50µM* | 8% | ? | -16%
COc1ccccc1N1CCN(Cc2nc(N)nc(Nc3ccc(C)c(Cl)c3)n2)CC1 | -34%[57.1 µM] | 8% | 4% | -1 | ? | -3% | -14% | -17%
COCCCNC(=S)N1CCN(c2nc(-c3cccc(OC)c3)cs2)CC1 | -32% | 1% | 19% | -9 | . | 5% | -10% | -17%
Cc1cc(C)n2c(Nc3ccc4c(c3)OCCO4)c(-c3ccccc3)nc2n1 | ? | -7%&7% | 20%&24% | -3&-6 | 50µM* | 20%&12% | ? | -8%&-17%

Part of the list above in order of heavy-atom count, rising.
SMILES | JMJD2A Tudor inh | PGK inhibitor | Pin1 inhibitor | PI4K2A block | G9a block | GLS inh | HP1b binding inh | Pol eta inh
CCOC(=O)CSc1nnc(NCC(=O)OC(C)C)c(=O)[nH]1 | 10%[11.4 µM] | i | -6% | -7 | -39%[12.7 µM] | 46%[activator] | 9% | -14%
Cc1cccc(-n2ccnc2SCC(=O)Nc2ccccc2C(F)(F)F)c1 | ? | -7% | -6% | 7 | ? | -12% | ? | -8%
COc1cc(OC)c(OC)cc1/C=C/c1nc2ccccc2c(=O)n1-c1ccc(Br)c(C)c1 | ? | 5% | 18% | 2 | -43%[59 µM] | 0% | -14% | -14%

Next part.
SMILES | JMJD2A Tudor inh | PGK inhibitor | Pin1 inhibitor | PI4K2A block | G9a block | GLS inh | HP1b binding inh | Pol eta inh
CN(C)CCCN(C(=O)c1ccc(N2C(=O)CCC2=O)cc1)c1nc2c(F)cccc2s1 | -16% | 2% | ? | -2 | 40µM* | 3% | 5% | 12%
Cc1cc(NC(=O)CN2CCN(C/C=C/c3ccccc3)CC2)c([N+](=O)[O-])cc1C | -20% | -6% | -1% | 4 | -7% | 2% | 13% | -24%
CCOC(=O)N1CCN(C(=O)Nc2ccc3nc(C)sc3c2)CC1 | -3% | -9% | 1% | -7 | -16%[12.7 µM] | 6% | 10% | 0%
COc1ccc(Cn2ccnc2SCC(=O)Nc2ccc(C)cc2C)cc1 | ? | -10% | -4% | 0 | -7%[59 µM] | -2% | 5%[57 µM] | -19%
Nc1c(-c2ccc(F)cc2)cnn1C1CCS(=O)(=O)C1 (configuration not stated) | -18% | -1% | 4% | -7 | 3%[59 µM] | 7% | 40%[activator] | -16%
CCOc1ccc(NC(=O)C(c2ccccn2)N(C(=O)CCl)c2ccc(F)cc2)cc1 (configuration not stated) | ? | 6% | 1% | -2 | 7.1µM* | 3% | 9% | -9%
Cc1c(C(=O)Oc2cccc3cccnc23)oc2ccccc12 | ? | 4% | 3% | -2 | ? | -6% | 48%[activator] | -23%
Cc1ccccc1Nc1c(-c2ccc(O)cc2)nc2c(C)cccn12 | ? | -3% | ? | -14 | ? | 24% | ? | -11%
CCOC(=O)N1CCC(NC(=O)c2ccc3c(c2)N=C(C)c2c(C)ccc(C)c2S3)CC1 | ? | 3% | -1% | 0 | -8% | -13% | -3%[57 µM] | -14%
CSc1ccc(/C=N/n2c(Cc3ccc(Br)cc3)n[nH]c2=S)cc1 | ? | -4% | 33%[activator] | -14 | 16µM* | 5% | -23% | -14%
CNc1nc(-c2ccc3c(c2)CCN3C(=O)c2cccc(F)c2)cs1 | ? | -8% | -1% | -2 | ? | 13% | ? | -8%
C/C(=C\C(=O)c1ccccc1)NNC(=O)c1ccc(Cl)cc1 | ? | -9% | -8% | 2 | 4%[0.501 µM] | 3% | 18% | -14%
O=C(NC1(Cc2ccccc2)CCN(CCc2cccs2)C1=O)c1ccccc1 (configuration not stated) | -10% | i | ? | -4 | 2%[0.501 µM] | 3% | 46%[activator] | -17%
CCCNc1nc(Nc2ccc(C)cc2)nc(N2CCCC2)n1 | -1% | 6% | 1% | -3 | -4% | 11% | 22% | -13%

Bioassay records as filed in PubChem.
